MBNL1 CUG block = MBNL1-poly(CUG) RNA binding inhibition; TR-FRET MBNL1-His/biotin-(CUG)12 binding, 665/545 ratio; Potency, µM (series often up to 57.5 µM), inactives show top-dose activity change, negative = inhibition, usual class: inhibitors; 280,000 compounds, 0.036% hits; AID 2675; active = well fitted inhibition curve with a large enough effect in the signal ratio, with a control signal flat, not every such curve was filed as active; inconclusive = small, poorly fitted or top-dose-only effect, or effect the other way, or a change in a side signal; inactive = no such curve, though single readings can be large or run the other way; the % refers to the signal ratio; note: % is set by controls: 0 for no effect and ±100 for the full control effect
Target sequence (Q9NR56 whole entry, looked up): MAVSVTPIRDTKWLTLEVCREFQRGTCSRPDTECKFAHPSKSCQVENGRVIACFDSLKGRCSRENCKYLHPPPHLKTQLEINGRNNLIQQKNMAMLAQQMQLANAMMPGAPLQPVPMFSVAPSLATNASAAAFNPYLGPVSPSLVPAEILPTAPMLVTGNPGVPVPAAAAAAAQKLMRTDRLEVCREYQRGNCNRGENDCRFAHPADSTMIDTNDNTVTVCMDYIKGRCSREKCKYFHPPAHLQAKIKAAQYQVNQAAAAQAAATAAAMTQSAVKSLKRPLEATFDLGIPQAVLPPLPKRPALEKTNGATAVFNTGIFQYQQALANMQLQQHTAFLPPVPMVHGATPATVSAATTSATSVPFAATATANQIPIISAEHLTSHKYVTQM
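Compounds (final 92 nM to 58 uM) are added to His-tagged MBNL1 and biotin-(CUG)12, then terbium anti-His antibody and streptavidin-XL665 (5 nM final). After 60 min at room temperature, the 665/545 nm ratio is read.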
RORgamma inh = blocks mouse ROR gamma transcriptional activity; P51450; Drosophila S2 Gal4-RORgamma UAS-luciferase reporter, 20 h; Potency, µM (titrated, usually from 53.6 µM), inactives show at the highest dose activity change, negative = inhibition, usual class: inhibitors; 310,000 compounds, 5.4% hits; note: % is set by controls: 0 for no effect and ±100 for the full control effect; nearly all actives have a fitted effect of over 60% in size
Target sequence (P51450 whole entry, looked up, the tested form may be a part): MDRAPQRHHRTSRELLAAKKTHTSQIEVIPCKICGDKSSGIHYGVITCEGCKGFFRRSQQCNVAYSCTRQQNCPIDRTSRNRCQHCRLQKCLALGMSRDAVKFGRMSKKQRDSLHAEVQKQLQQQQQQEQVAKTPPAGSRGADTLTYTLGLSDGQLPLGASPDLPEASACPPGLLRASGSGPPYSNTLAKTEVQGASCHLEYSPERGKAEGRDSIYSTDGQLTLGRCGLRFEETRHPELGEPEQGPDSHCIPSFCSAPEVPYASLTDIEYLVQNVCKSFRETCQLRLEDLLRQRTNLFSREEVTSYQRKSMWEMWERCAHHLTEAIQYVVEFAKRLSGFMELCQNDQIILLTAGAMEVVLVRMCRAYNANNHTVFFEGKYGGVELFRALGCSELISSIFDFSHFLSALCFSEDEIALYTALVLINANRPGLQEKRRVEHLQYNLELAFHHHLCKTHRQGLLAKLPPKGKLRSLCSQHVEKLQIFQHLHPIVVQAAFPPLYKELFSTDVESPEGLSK
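In this cell-based reporter format, copper sulfate (700 uM final) drives Gal4–ROR gamma fusion expression from a metallothionein promoter in Drosophila Schneider cells; compounds preincubated 1 hr, reporter read after 20 hr at ambient temperature.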
BRCA1 expr act = increases BRCA1 expression | 380,000 compounds, 1.1% hits | Potency, µM (doses to about 46.1 µM), for the others: top-dose activation, usual class: activators | MCF7-BRCA1-FFLuc reporter, luminescence, 48 h; response scale: scaled: vehicle 0%, 10 µM genistein 100%; note: nearly all actives have a fitted effect of over 80% in size; some results filed as inactive show a strong effect at the top dose
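MCF7-BRCA1-FFLuc cells, 2000/well in phenol-red-free MEM, attached 2 h then treated 48 h at 37 C. Luciferase luminescence read 15 min after reagent; normalized to genistein maximum activation (10microM) and DMSO, concentration-response fitted.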
VP16 counter = counter-screen for ROR gamma inhibitors: Gal4-VP16 reporter | Potency, µM (doses to about 53.6 µM), inactives show at the top dose activity, negative = inhibition, hits mostly inhibitors | Drosophila S2 Gal4-VP16 UAS-luciferase, luminescence, 20 h | 310,000 compounds, 3.5% hits | AID 2546;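 note: Gal4-VP16 expression switched on by copper sulfate through the metallothionein promoter; % is set by controls: 0 for no effect and ±100 for the full control effect; nearly all actives have a fitted effect of over 50% in size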
NPC1 promoter act = activates the NPC1 promoter | Huh7 NPC1 promoter luciferase reporter, 24 h | 320,000 compounds, 2.4% hits | Potency, µM (series often up to 9.22 µM), for inactives: top-dose activation, hits mostly activators;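 note: % of control where 0% means no effect; nearly all actives have a fitted effect of over 60% in size; reporter is driven by a mutant NPC1 promoter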
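Luciferase expression driven by the NPC1 promoter was measured in stably transfected Huh7 cells after a 24 h compound incubation, using a luciferase reagent and a luminescence read.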
Rab9 prom act = activators of Rab9 promoter | Potency, µM (series often up to 9.22 µM), inactives show at the top dose activation, negative = inhibition, actives largely listed as activators | Huh7 Rab9 promoter-luciferase reporter, luminescence, 24 h | 320,000 compounds, 2.8% hits | AID 485297; note: % of control where 0% means no effect; nearly all actives have a fitted effect of over 60% in size
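Rab9 promoter-driven luciferase in stably transfected Huh7 cells; 1500 cells/well rested 2 h, exposed to compound in DMSO for 24 h at 37 °C, 5% CO2. Luminescence read 10 min after adding luciferase reagent at ambient temperature.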
ELG1 genotoxic = genotoxicity induction in ELG1-luciferase HEK293T cells. HEK293T ELG1-luciferase reporter, luminescence, 16 h. 330,000 compounds, 1.3% hits. AID 504466. Potency, µM (titrated, usually from 46 µM), without a hit: top-dose activity change, positive = activation, actives largely listed as activators; note: % of control where 0% means no effect; nearly all actives have a fitted effect of over 60% in size
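After overnight (16 hr) compound treatment at 37 °C, ELG1-luciferase HEK293T cells were lysed with ONE-Glo; luminescence quantified 30 min later at room temperature.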
An asterisk follows results filed as active; & = joins results of further samples; [ ] = another dose, or the depositor's remark. Unless noted, calls come from the whole dose curve; as a rule, active = well fitted curve in the direction sought with a large enough effect; inconclusive = small, poorly fitted or top-dose-only effect, or another doubt; inactive = no such curve, though single readings can be large; an effect the other way counts as inactive or inconclusive. Potency is the fitted concentration of half-maximal effect. This is a subset, so the mix of outcomes need not match the whole.

Results for CS(=O)(=O)Nc1ccc([N+](=O)[O-])cc1Oc1ccccc1 ?
MBNL1 CUG block: inconclusive; RORgamma inh: 44%; BRCA1 expr act: 5%&-26%; VP16 counter: 8%; NPC1 promoter act: 1%[46.1 µM]; Rab9 prom act: -12%[46.1 µM]; ELG1 genotoxic: -1%

How did O=c1oc2cc(O)ccc2c2oc3cc(O)ccc3c12 do in these assays?
MBNL1 CUG block: 12%; RORgamma inh: -2%&3%; BRCA1 expr act: -12%; VP16 counter: -9%&-7%; NPC1 promoter act: 1%; Rab9 prom act: 1%; ELG1 genotoxic: 7%

What do the screens show for `CCN(CC)c1ccc(NC(=O)CSC(=O)c2ccccc2)cc1`?
BRCA1 expr act: -67%; ELG1 genotoxic: 6%

Results for O=C1NC[C@@H](c2ccccc2)OC(=O)[C@@H](Cc2ccc(F)cc2)CC/C=C/C[C@@H]1CC(=O)N(CCO)Cc1ccccc1 ?
BRCA1 expr act: -43%; ELG1 genotoxic: -4%

What do the screens show for `O=C1NC[C@H](c2ccccc2)OC(=O)[C@@H](Cc2ccc(F)cc2)CC/C=C/C[C@H]1CC(=O)N(CCO)Cc1ccccc1`?
BRCA1 expr act: -73%; ELG1 genotoxic: -13%

How did COc1cc2c(cc1OC)C1C(=O)c3cc(OS(C)(=O)=O)c(OC)cc3C1N(C)C2=O (configuration not stated) do in these assays?
BRCA1 expr act: -54%

How did Cc1ccc(N)c([N+](=O)[O-])c1 do in these assays?
RORgamma inh: 25%; BRCA1 expr act: 15%; VP16 counter: 5%; NPC1 promoter act: -5%; Rab9 prom act: -3%; ELG1 genotoxic: 1%

Results for CCCNC(C)(C)COC(=O)c1ccccc1 ?
RORgamma inh: 12%[16.9 µM]; BRCA1 expr act: 12%; VP16 counter: -1%[17 µM]; NPC1 promoter act: 5%; Rab9 prom act: -8%; ELG1 genotoxic: -6%

What do the screens show for `Cc1cc(C(=O)N[C@H](c2ccccc2)[C@@]2(C)C[C@@H]2[C@@H](C)C(=O)Nc2ccc3ccccc3c2)no1`?
MBNL1 CUG block: -19%; RORgamma inh: 15%&18%; BRCA1 expr act: -59%; VP16 counter: 3%&-5%; NPC1 promoter act: -7%; Rab9 prom act: 1%; ELG1 genotoxic: -5%

How did NS(=O)(=O)c1ccc(N=Nc2c[nH]c(=O)c(O)c2)cc1 do in these assays?
MBNL1 CUG block: inconclusive; RORgamma inh: -18%; BRCA1 expr act: -3%; VP16 counter: -12%; NPC1 promoter act: 0%; Rab9 prom act: 2%; ELG1 genotoxic: -2%

Results for CC(=O)c1ccc2c(c1)N(CCCN1CCC(CCO)CC1)c1ccccc1S2 ?
RORgamma inh: 2%[2.98 µM]; BRCA1 expr act: -1%; VP16 counter: 10%[17 µM]; NPC1 promoter act: -3%; Rab9 prom act: 2%; ELG1 genotoxic: 21%

Results for Cc1ncc(C[n+]2csc(CCO)c2C)c(N)n1 ?
MBNL1 CUG block: 0%; RORgamma inh: -15%; BRCA1 expr act: 0%&24%; VP16 counter: 3%; NPC1 promoter act: -3%&0%; Rab9 prom act: -5%&-4%; ELG1 genotoxic: -2%&7%

How did CCC1OC(=O)C(C)C(OC2C[C@@](C)(OC)C(O)C(C)O2)C(C)C(O[C@@H]2OC(C)CC(N(C)C)C2O)[C@](C)(O)CC(C)C(=NOCOCCOC)C(C)C(O)[C@]1(C)O (some centres not stated) do in these assays?
BRCA1 expr act: 6%; NPC1 promoter act: -2%; Rab9 prom act: 2%; ELG1 genotoxic: -2%

How did C=CCC[C@@H](Cc1ccc(F)cc1)C(=O)OC[C@@H](NC(=O)[C@@H](CC=C)CC(=O)N(CCO)Cc1ccccc1)c1ccccc1 do in these assays?
BRCA1 expr act: -74%; ELG1 genotoxic: -10%

What do the screens show for `CCOC(=O)C1=NN(c2ccccc2)C(=O)C1`?
MBNL1 CUG block: 7%; RORgamma inh: -36%; BRCA1 expr act: 10%; VP16 counter: -5%; NPC1 promoter act: 0%; Rab9 prom act: 0%; ELG1 genotoxic: -2%

Results for Oc1cccc(Nc2ccccc2)c1 ?
RORgamma inh: 9%; BRCA1 expr act: 10%; VP16 counter: 20%; NPC1 promoter act: 2%; Rab9 prom act: 0%; ELG1 genotoxic: 5%

What do the screens show for `CCN(CC)C(=O)c1cccc(C)c1`?
RORgamma inh: 0%&21%; BRCA1 expr act: 11%; VP16 counter: -3%&-11%; NPC1 promoter act: 1%; Rab9 prom act: -4%; ELG1 genotoxic: -6%

Results for C=CCc1ccc(OC)c(OC)c1 ?
MBNL1 CUG block: 3%; RORgamma inh: -16%&12%; BRCA1 expr act: 3%; VP16 counter: 2%&-2%; NPC1 promoter act: 2%; Rab9 prom act: -5%; ELG1 genotoxic: 3%

Results for COc1ccc(C[C@H](N)C(=O)N[C@@H]2[C@H](O)[C@H](n3cnc4c(N(C)C)ncnc43)O[C@@H]2CO)cc1 ?
RORgamma inh: inconclusive; VP16 counter: inconclusive

What do the screens show for `CN(C)CC[C@H](c1ccc(Cl)cc1)c1ccccn1`?
RORgamma inh: -2%[16.9 µM]; VP16 counter: -11%[17 µM]

Six compounds already listed, ordered by length of the SMILES, low to high:
What do the screens show for `CCOC(=O)C1=NN(c2ccccc2)C(=O)C1`?
MBNL1 CUG block: 7%; RORgamma inh: -36%; BRCA1 expr act: 10%; VP16 counter: -5%; NPC1 promoter act: 0%; Rab9 prom act: 0%; ELG1 genotoxic: -2%

What do the screens show for `CN(C)CC[C@H](c1ccc(Cl)cc1)c1ccccn1`?
RORgamma inh: -2%[16.9 µM]; VP16 counter: -11%[17 µM]

What do the screens show for `CCN(CC)c1ccc(NC(=O)CSC(=O)c2ccccc2)cc1`?
BRCA1 expr act: -67%; ELG1 genotoxic: 6%

Results for COc1ccc(C[C@H](N)C(=O)N[C@@H]2[C@H](O)[C@H](n3cnc4c(N(C)C)ncnc43)O[C@@H]2CO)cc1 ?
RORgamma inh: inconclusive; VP16 counter: inconclusive

How did C=CCC[C@@H](Cc1ccc(F)cc1)C(=O)OC[C@@H](NC(=O)[C@@H](CC=C)CC(=O)N(CCO)Cc1ccccc1)c1ccccc1 do in these assays?
BRCA1 expr act: -74%; ELG1 genotoxic: -10%

How did CCC1OC(=O)C(C)C(OC2C[C@@](C)(OC)C(O)C(C)O2)C(C)C(O[C@@H]2OC(C)CC(N(C)C)C2O)[C@](C)(O)CC(C)C(=NOCOCCOC)C(C)C(O)[C@]1(C)O (some centres not stated) do in these assays?
BRCA1 expr act: 6%; NPC1 promoter act: -2%; Rab9 prom act: 2%; ELG1 genotoxic: -2%

Later entries.
Results for Cc1cccnc1 ?
RORgamma inh: -27%; BRCA1 expr act: 6%; VP16 counter: -8%; NPC1 promoter act: 12%; Rab9 prom act: -2%; ELG1 genotoxic: 0%

How did Nc1ccc(O)c([N+](=O)[O-])c1 do in these assays?
RORgamma inh: -17%; BRCA1 expr act: 14%; VP16 counter: 5%; NPC1 promoter act: -8%; Rab9 prom act: -1%; ELG1 genotoxic: 3%

Results for C(=C\c1ccncc1)/c1ccccc1 ?
MBNL1 CUG block: 20%; RORgamma inh: -29%&-27%; BRCA1 expr act: 52%; VP16 counter: -2%&25%; NPC1 promoter act: 15%; Rab9 prom act: 14%; ELG1 genotoxic: 9%

What do the screens show for `CNC(C)C(=O)NC(C(=O)N1CCCC1C(=O)Nc1ccc2ncccc2c1)C(C)C` (configuration not stated)?
BRCA1 expr act: 11%; NPC1 promoter act: 1%; Rab9 prom act: -6%; ELG1 genotoxic: 6%

Results for CCN(CC)CCOc1ccc(/C(=C(\Cl)c2ccccc2)c2ccccc2)cc1 ?
RORgamma inh: -31%; BRCA1 expr act: -76%; VP16 counter: -24%; NPC1 promoter act: -5%; Rab9 prom act: -3%; ELG1 genotoxic: inconclusive

How did Clc1ccc2c(c1)C(N1CCNCC1)=Nc1ccccc1O2 do in these assays?
MBNL1 CUG block: -13%; RORgamma inh: -12%; BRCA1 expr act: -28%; VP16 counter: 0%; NPC1 promoter act: -24%[46.1 µM]; Rab9 prom act: -18%[46.1 µM]; ELG1 genotoxic: -4%

What do the screens show for `CC(C)(Oc1ccc(CCNC(=O)c2ccc(Cl)cc2)cc1)C(=O)O`?
MBNL1 CUG block: -21%; RORgamma inh: 24%; BRCA1 expr act: -6%; VP16 counter: -9%; NPC1 promoter act: 9%[46.1 µM]; Rab9 prom act: 1%[46.1 µM]; ELG1 genotoxic: 2%

How did C/C(CC(=O)Nc1ccccc1C)=N\NC(=O)Cc1csc(N)n1 do in these assays?
MBNL1 CUG block: 0%; RORgamma inh: inconclusive; BRCA1 expr act: 3%; VP16 counter: -5%; NPC1 promoter act: -6%; Rab9 prom act: -5%; ELG1 genotoxic: 1%

How did COc1cc(C(=S)N2CCOCC2)cc(OC)c1OC do in these assays?
MBNL1 CUG block: -1%; RORgamma inh: 26%&9%; BRCA1 expr act: -22%; VP16 counter: -4%&2%; NPC1 promoter act: 2%; Rab9 prom act: 1%; ELG1 genotoxic: -1%

What do the screens show for `O=C(OCC(O)CO)c1ccccc1Nc1ccnc2cc(Cl)ccc12` (configuration not stated)?
RORgamma inh: 16%; BRCA1 expr act: -1%; VP16 counter: -19%; NPC1 promoter act: 3%; Rab9 prom act: 3%; ELG1 genotoxic: 2%

What do the screens show for `Cc1cc(C)c(N)cc1C`?
RORgamma inh: -27%; BRCA1 expr act: 12%; VP16 counter: 6%; NPC1 promoter act: 10%; Rab9 prom act: -1%; ELG1 genotoxic: 3%

What do the screens show for `O=C1NC[C@@H](c2ccccc2)OC(=O)[C@H](Cc2ccc(F)cc2)CC/C=C/C[C@H]1CC(=O)N(CCO)Cc1ccccc1`?
BRCA1 expr act: -3%; ELG1 genotoxic: -4%

Results for Nc1ncn(C2CC(O)C(CO)O2)c(=O)n1 (configuration not stated) ?
RORgamma inh: -11%; VP16 counter: -3%

What do the screens show for `CN1CCN2c3ccccc3Cc3ccccc3C2C1` (configuration not stated)?
MBNL1 CUG block: inconclusive; RORgamma inh: -6%; BRCA1 expr act: 4%&3%; VP16 counter: -1%&-15%&-16%; NPC1 promoter act: -16%[46.1 µM]; Rab9 prom act: -32%[inhibitor][46.1 µM]; ELG1 genotoxic: -2%

Results for O=C(O)c1cccnc1 ?
MBNL1 CUG block: 14%; RORgamma inh: -25%; BRCA1 expr act: -11%; VP16 counter: -6%; NPC1 promoter act: -1%; Rab9 prom act: -4%; ELG1 genotoxic: 0%

Source: PubChem
